Screening data as filed in PubChem BioAssay.
gsp antagonist – antagonizes gsp, the McCune-Albright syndrome mutation. Potency, µM (highest dose often 76.9 µM), inactives show at the highest dose activity change, negative = inhibition, hits mostly inhibitors. AID 624288. 340,000 tested, 0.4% active. gsp-mutant cells, cAMP HTRF, 30 min; control for the full effect not named in the record; active = falling curve of any shape with a large fitted effect; inconclusive = falling curve, mostly with a smaller effect; inactive = flat or rising curve; cell line not stated here;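 note: intracellular cAMP measured with PDE inhibitor Ro 20-1724 present during compound exposure; potency is the fitted concentration of half-maximal effect; % is set by controls: 0 for no effect and ±100 for the full control effect; nearly all actives have a fitted effect of over 65% in size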
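Cells, 2000/well, grown 16–24 h in DMEM 10% FBS with 0.5 mg/ml G418, then compounds plus […] (300 uM addition stock), 30 min at 37C. cAMP read by HTRF (cAMP-d2 and anti-cAMP antibody-K in lysis buffer) after 30 min RT.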
TRPV1 PAM – human TRPV1 potentiation; TRPV1-expressing cells, Fluo-8 calcium influx, capsaicin EC20 potentiation; host cell line not named in the record; control for the full effect not named in the record; potentiation, % at 8.33 µM; 320,000 tested, 0.02% active; AID 540277; active means potentiation above 80%; inconclusive means 30% to 80%; inactive means below 30%; note: 0% is about no effect
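Cells expressing TRPV1 were dye-loaded with Fluo-8 and read kinetically: 10 s baseline, 3 min after compound (agonist portion), then 2 min after EC20 capsaicin (allosteric enhancer portion). Calcium-bound dye fluorescence at 480/520 nm.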
ClpP mod – qHTS Assay for Activators of ClpP; purified B. subtilis ClpP, FRET peptide cleavage, 20 min; Potency, µM (top dose mostly 57.5 µM), for the others: at the highest dose activity change, negative = active; 340,000 tested, 1.9% active; AID 651965, 2013; active = well fitted falling curve with a large enough effect; inconclusive = small, poorly fitted or top-dose-only effect; inactive = no such curve, though single readings can be large or run the other way; note: potency is the fitted concentration of half-maximal effect; the source files actives as falling curves though it sought activators and does not explain the sign; nearly all actives have a fitted effect of over 65% in size; many hits overshoot -100%
Target sequence (P80244 whole entry, looked up): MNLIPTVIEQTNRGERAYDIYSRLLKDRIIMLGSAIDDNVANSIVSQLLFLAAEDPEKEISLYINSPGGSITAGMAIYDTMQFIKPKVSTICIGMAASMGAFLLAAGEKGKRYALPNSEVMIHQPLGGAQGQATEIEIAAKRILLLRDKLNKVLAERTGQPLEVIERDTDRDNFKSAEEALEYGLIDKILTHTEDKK
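Buffer: 100 mM Tris/HCl pH8, 100 mM KCl, 0.05% low protease BSA, 2.5% glycerol, 0.01% Tween-20. ClpP 10 microg/mL final; 20 min RT; delta FRET normalized to ADEP and DMSO controls.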
Sfp inh – inhibitors of Bacillus subtilis Sfp phosphopantetheinyl transferase; Q9F4F7; Biochemical Sfp PPTase activity, qHTS; Potency, µM, for inactives: max response, negative = inhibition, most hits filed as inhibitors; 310,000 tested, 3.5% active; AID 1490; active = well fitted inhibition curve with a large enough effect; inconclusive = small, poorly fitted or top-dose-only effect, or another doubt; inactive = no such curve, though single readings can be large or run the other way;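 note: the enzyme is Sfp with the accession as filed and its product quenches rhodamine fluorescence; potency is the fitted concentration of half-maximal effect; 0% = enzyme reaction without inhibitor and -100% = no enzyme wells; top concentration of the series not given in the record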
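Reaction rates are the 30-min fluorescence difference (ex 525, em 598 nm) in wells containing 15 nM Sfp, 5 uM rhodamine-CoA and 12.5 uM BHQ-2-YbbR at pH 7.6 with 10 mM MgCl2.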
gsp agonist – activates gsp, the McCune-Albright syndrome mutation; Potency, µM (titrated, usually from 76.9 µM), for the others: top-dose activation (cAMP increase), hits mostly activators; 340,000 tested, 0.13% active; gsp mutant cells, cAMP HTRF, 30 min; control for the full effect not named in the record; active = well fitted activation curve with a large enough effect; inconclusive = small, poorly fitted or top-dose-only effect, or another doubt; inactive = no such curve, though single readings can be large or run the other way; cell line not stated here;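 note: phosphodiesterase inhibitor Ro 20-1724 added with compounds to block cAMP breakdown; potency is the fitted concentration of half-maximal effect; nearly all actives have a fitted effect of over 60% in size; about a fifth of the inactives were tested at one dose only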
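Cells stably selected in G418 were plated at 2000/well, grown 16-24 hr, then given compounds in DMSO with the PDE inhibitor […] (300 uM solution added) for 30 min at 37C; cAMP was read by HTRF.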
D2 potentiator – positive allosteric modulators of human D2 dopamine receptor | potentiation, % (test concentration not listed) | 360,000 tested, 0.23% active | P14416 | AID 624464 | DiscoveRx D2 beta-arrestin cells, luminescence, 90 min; 100% = 57 uM dopamine signal; active = potentiation of 50% or more; inconclusive = 30% to 50%; inactive = 30% or less;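 note: compound concentration not given in the record; tested on top of an EC20 dose of dopamine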
Target sequence (P14416 whole entry, looked up): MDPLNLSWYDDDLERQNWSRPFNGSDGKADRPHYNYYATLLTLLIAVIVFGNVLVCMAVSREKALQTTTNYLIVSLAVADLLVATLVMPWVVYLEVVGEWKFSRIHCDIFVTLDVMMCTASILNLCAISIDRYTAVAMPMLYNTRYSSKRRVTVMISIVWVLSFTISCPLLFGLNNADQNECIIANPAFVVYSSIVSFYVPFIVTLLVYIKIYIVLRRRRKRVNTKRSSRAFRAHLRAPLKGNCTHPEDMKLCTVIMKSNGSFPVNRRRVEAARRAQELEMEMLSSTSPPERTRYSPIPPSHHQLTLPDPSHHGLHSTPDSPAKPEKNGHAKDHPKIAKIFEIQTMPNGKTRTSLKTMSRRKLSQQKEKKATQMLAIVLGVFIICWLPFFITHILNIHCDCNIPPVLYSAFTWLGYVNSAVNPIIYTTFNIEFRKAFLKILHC
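D2 cells co-treated with compound plus 50 nM dopamine (EC20) for 90 min at 37 deg C to detect potentiation. Beta-arrestin recruitment was read as enzyme-fragment luminescence after 1 h at ambient temperature. Full response was set by 57 uM dopamine.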
Menin MLL FP FL – displaces fluorescein MLL peptide from human menin. Fluorescence polarization, fluorescein-MLL peptide displacement from menin. FP activity change, % at 61.4 µM. 290,000 tested, under 10 active; inconclusive = falling polarisation curve, or a change in total fluorescence; inactive = total fluorescence flat and polarisation flat or rising; no compound was filed as active; the % refers to the polarisation; negative = inhibition;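 note: % of control where 0% means no effect; inhibitors lower the polarisation; unlabelled MLL peptide was the positive control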
* marks the source's active call; other numbers are inactive results; ? = inconclusive; . = not tested or not shown; [ ] = dose if it differs, or a comment.

SMILES	gsp antagonist	TRPV1 PAM	ClpP mod	Sfp inh	gsp agonist	D2 potentiator	Menin MLL FP FL
Clc1ccccc1Nc1nc(-c2ccncc2)nc2ccccc12	-20%	-7	-9.5%	-5%	19%	-11	0.1
CC(CCc1ccccc1)NC(=O)COC(=O)C1CCC(C(C)(C)C)CC1 (stereo not given)	15%	-11	2.9%	15%	-24%	-23	3.9
COc1ccc(OC)c(NS(=O)(=O)c2ccc(N3CCCC3=O)cc2)c1	-3%	0	-0.5%	6%	-20%	-15	2.6
Cc1nc(SCC(=O)NC2CCCC2)[nH]c(=O)c1Cc1ccccc1	-20%	13	-0.8%	19%	-26%	-4	2.4
Nc1ncnc2c1ncn2[C@@H]1O[C@H](CNC(=O)[C@@H]2CCC(=O)N2)[C@@H](O)[C@H]1O	9%	.	0.7%	.	.	3	.
O=C1C=C(N2CCCCC2)C2(CCCCC2)O1	-3%	-3	0.7%	23%	-63%[inhibitor]	-3	1.8
O=C(/C=C/c1ccc(F)cc1)NCCCN1CCN(CCCNC(=O)/C=C/c2ccc(F)cc2)CC1	15%	8	0.4%	-21%	-7%[15.4 µM]	-28	3.8
O=C(Nc1cc(S(=O)(=O)N2CCOCC2)ccc1N1CCOCC1)c1cc(=O)[nH]c2ccccc12	22%	6	.	-7%	25%[15.4 µM]	-4	-2.1
CCCNC1=C(C)C(=O)CC1	4%	-5	32µM*	19%	-3%	-5	1.8
C[N+]1(CC#CC(O)(c2ccccc2)c2ccccc2)CCCC1	9%	-1	-1.2%	4%	27%	-5	0.2
COc1ccccc1CNC(=O)CCC(=O)Nc1nnc(C)s1	8%	2	-0.4%	13%	-15%	-11	3.3
CC/C(=N\NC(=O)c1ccc(-c2ccccc2)cc1)C12CC3CC(CC(C3)C1)C2	7%	-20	-0.4%	2%	3%	-12	-2.6
CCN(CC)C(=O)CSc1nc2c(sc(=S)n2-c2ccc(C)cc2C)c(=O)[nH]1	?	20	.	6%	20%	8	-1.2
Cc1ccc(-c2nnc(SCC(=O)N3CCCC3)o2)cc1	-3%	-17	-7.5%	6%	11%	-15	3.6
CCOC(=O)c1ccc(N2C(=O)CC(N3CCN(C(=O)c4ccco4)CC3)C2=O)cc1 (stereo not given)	15%	-10	-1.0%	-1%	0%	-1	0.3
C/C(CC(=O)NCc1ccccc1Cl)=N/NC(=O)c1ccccn1	4%	-4	.	-18%	9%	-3	-0.8
O=S(=O)(Nc1ccccc1F)c1ccc2nsnc2c1	-2%	10	-3.5%	8%	0%	-20	2.3
CCN(CC)C1=CC(=[N+]2CCCC2)CC(C)(C)C1	1%	3	-1.4%	3%	8%[15.4 µM]	-4	-0.2
CC(C)c1nnc(NC(=O)CCC(=O)N2CCN(c3ccc(Cl)cc3)CC2)s1	-3%	-3	-1.2%	-4%	?	-11	.
COc1cc(-c2cc(C(=O)NCCc3ccc(S(N)(=O)=O)cc3)c3ccccc3n2)cc(OC)c1OC	-2%	-1	.	17%	-3%[15.4 µM]	12	1.2
CCOc1ccc(N(CC(=O)Nc2ccccc2C(=O)NCc2ccco2)S(C)(=O)=O)cc1	2%	3	-16%	10%	0%	-2	0.3
Cc1ccc(-n2c(C)cc(C(=S)N3CCOCC3)c2C)cc1C	-19%	-10	-1.9%	-23%	-4%	-8	6.2
CCN(CC)CCNc1nc2c(c(=O)n(C)c(=O)n2C)n1C/C=C(/C)Cl	-15%	6	-0.3%	12%	6%	-12	7.2
O=C(CN1C(=O)S/C(=C\c2ccccc2)C1=O)NNC(=O)c1ccccc1O	-20%	-6	-5.2%	-9%	-5%[15.4 µM]	-7	.
O=C(CN1c2cccc3cccc(c23)S1(=O)=O)Nc1ccc(F)c(F)c1F	-9%	.	.	.	?	-6	.
O=C1N[C@@H](c2ccccc2)COC(=O)[C@H](Cc2ccc(F)cc2)C/C=C\C[C@H]1CC(=O)N(CCO)Cc1ccccc1	?	.	0.1%	.	.	-6	.
C=CCn1c(SCC(=O)Nc2ccc(Br)cc2)nc(O)cc1=O	.	.	2.6%	.	-36%[inhibitor]	2	.
COc1ccc(CCNCc2ccccc2N2CCCC2)cc1	9%	3	.	-8%	?	-2	0.8
Cc1nc(SCC(=O)NCC(F)(F)F)c2c(-c3cccs3)csc2n1	-7%	-10	0.1%	30%	?	-4	1.6
Cc1ccc2c(ccc(=S)n2C)c1	17%	25	.	-16%	14%[15.4 µM]	-2	0.1
CCN(CC)C(=O)Cn1cc(S(=O)(=O)CC(=O)Nc2cccc(NC(C)=O)c2)c2ccccc21	.	.	-0.5%	.	-107%[inhibitor]	-7	.
CCC(=O)Nc1cc(-c2nn(C)c(=O)c3ccccc23)ccc1N1CCOCC1	12%	3	-1.5%	18%	-4%[15.4 µM]	3	1.6
Cc1cc(C(C)(C)C)cc(C)c1C(=O)O	5%	-6	-29%	6%	12%[15.4 µM]	-5	-1.1
COCCNC(=O)C(=O)NCC1OCCN1S(=O)(=O)c1cc(F)ccc1F (stereo not given)	8%	.	-1.1%	.	-37%	-12	.
O=C(CCNC(=O)c1ccco1)Nc1ccc(OC(F)F)c(Cl)c1	-6%	20	.	13%	-9%	-5	-5.6
CC(=O)c1cccc(NC(=O)c2cc(=O)c3ccccc3o2)c1	-4%	-27	-1.0%	6%	-16%	-8	3.2
Cc1ccccc1-n1cc(CNC(=O)C2CCC(=O)N(C3CC3)C2)cn1 (stereo not given)	12%	12	-9.8%	14%	-25%	-13	-2.7
Cc1cnn(C(=S)NCc2ccc(Cl)cc2)c1	12%	-15	-0.3%	5%	3%	-6	-1.3
Cc1cc(C)cc(C(=O)NCC(=O)OCC(=O)NC2CCCc3ccccc32)c1 (stereo not given)	2%	.	.	.	-4%	-7	.
Cc1ccoc1C(=O)N1CCN(C(=O)c2occc2C)CC1	6%	-8	.	-7%	?	1	-1.9
COc1ccc(C2=NN(C(=O)CSc3nnc(C)c(=O)n3N)C(c3ccco3)C2)cc1 (stereo not given)	-5%	5	.	3%	-19%[15.4 µM]	4	10
C[C@@H]1CC=C[C@@H]2[C@H]1C(=O)N(Cc1ccccc1)[C@H]2c1ccccc1Br	-21%	.	-3.4%	-24%	.	0	?
CCOC(=O)C1(C)C=C(Nc2cccc(OC)c2)C(=O)N1c1ccccc1 (stereo not given)	-2%	8	.	21%	13%[15.4 µM]	-3	3.1
Cc1cccc2nc(CSc3ccc(Cl)cc3)cn12	-6%	-20	-4.6%	9%	10%[15.4 µM]	-10	2.0
Cc1ccc(SCc2ccc(C(=O)Nc3cccc([N+](=O)[O-])c3)cc2)cc1	3%	-2	3.8%	-14%	-18%	4	1.7
COc1ccc(C(=O)Nc2sc3c(c2C(=O)O)CC(C)(C)OC3)cc1	-23%	-26	-2.5%	4%	7%	-10	.
Cc1ccc(-c2nn(-c3ccccc3)cc2/C=C2\SC(=S)N(CC(=O)O)C2=O)cc1	?	2	0.6%	50µM*	-33%[inhibitor]	-9	-1.8
CCC12CN3CC(CC)(CN(C1)C3c1ccc([N+](=O)[O-])o1)C2=O (stereo not given)	7%	9	.	1%	3%[15.4 µM]	-6	3.2
CCOc1ccc(NC(=O)C2Cc3ccccc3CN2S(=O)(=O)CC)cc1 (stereo not given)	0%	?	-1.4%	2%	-38%	-5	-2.0
CN1CCN(c2ccc(CNC(=O)c3ccco3)cc2)CC1	-8%	0	-4.6%	-2%	2%	-22	-0.4
CCOc1ccc(/C=N\NC(=O)c2c(C)nc3cc(C)ccn23)cc1	-5%	7	-0.4%	23%	-16%[15.4 µM]	-2	0.9
CCCc1nc2c(=O)n(C)c(=O)nc-2n(C)n1	?	4	.	10%	12%[15.4 µM]	30	1.4
CCN(C(=O)CSc1nnc(-c2ccccc2C)n1C)c1c(N)n(Cc2ccccc2)c(=O)[nH]c1=O	-3%	19	-2.0%	.	-6%[15.4 µM]	-16	.
CN1CCC(=NNC(=O)CN(c2cccc(Cl)c2)S(C)(=O)=O)CC1	9%	-28	0.5%	13%	-25%	-2	0.2
COc1cc(C(=O)NC2CCCc3ccccc32)cc(OC)c1OC (stereo not given)	0%	?	.	27%	26%[15.4 µM]	0	1.6
C=Cn1cc[n+](CC(=O)c2ccc(Br)cc2)c1	4%	-6	0.3%	21%	-6%	-16	2.7
N#C/C(=C\Nc1ccc(F)c(Cl)c1)S(=O)(=O)c1ccccn1	-9%	-11	0.0%	9%	-1%[15.4 µM]	-5	-2.1
Cc1cn(C2CC(O)C(CO)O2)c(=O)n(CCCc2ccccc2)c1=O (stereo not given)	-4%	.	-26%	.	8%	9	.
O=C(Cn1c(=O)c2c(ncn2Cc2ccccc2)n(Cc2ccccc2)c1=O)N1CCCC1	2%	13	0.3%	-5%	-10%	-10	3.7
CCC(CC)C(=O)c1c[nH]c(C(=O)OC)c1	14%	3	-0.9%	1%	-1%[15.4 µM]	-4	-5.1

Going on with the list:
SMILES	gsp antagonist	TRPV1 PAM	ClpP mod	Sfp inh	gsp agonist	D2 potentiator	Menin MLL FP FL
Cc1ccc2c(C)c(C(=O)NCC3CCOCC3)oc2c1C	.	.	-19%	.	-3%	-12	.
Cc1ccc(-n2c(Cc3cccs3)nnc2SCC(N)=O)cc1	-8%	2	-1.4%	12%	10%	-2	4.9
O=C(NCC(c1cccnc1)N1CCN(c2ccc(F)cc2)CC1)C1CCCCC1 (stereo not given)	3%	-7	-2.7%	12%	-8%	-18	-0.9
Cc1ccccc1C(=O)NC1CCN(Cc2nnnn2Cc2ccccc2)CC1	-6%	4	-0.1%	-5%	-23%	-11	4.5
Cc1ccc(NC(=O)CN(C)C(=O)c2cc(-c3cccs3)nn2-c2ccccc2)cc1	?	-8	-1.9%	.	-8%	1	.
COc1cc(C(=O)NCCNC(=O)c2ccc(C)nc2)cc(OC)c1OC	6%	4	.	25%	6%[15.4 µM]	2	0.1

Reformatted with values under each structure: part of the list above.
Each structure is followed by: gsp antagonist	TRPV1 PAM	ClpP mod	Sfp inh	gsp agonist	D2 potentiator	Menin MLL FP FL
- COc1cc(-c2cc(C(=O)NCCc3ccc(S(N)(=O)=O)cc3)c3ccccc3n2)cc(OC)c1OC
 : -2%	-1	.	17%	-3%[15.4 µM]	12	1.2
- CCOc1ccc(N(CC(=O)Nc2ccccc2C(=O)NCc2ccco2)S(C)(=O)=O)cc1
 : 2%	3	-16%	10%	0%	-2	0.3
